VACV mCherry inh: inhibitors of vaccinia virus infection (mCherry reporter signal) | Vaccinia virus mCherry reporter infection, fluorescence; about a quarter of the inactives have no number | Potency, µM (titrated, usually from 36.5 µM), inactives show at the top dose activity change, negative = inhibition, most hits filed as inhibitors | 0.63% of 310,000 active | AID 720579; active = well fitted inhibition curve with a large enough effect; inconclusive = small, poorly fitted or top-dose-only effect; inactive = no such curve, though single readings can be large or run the other way; tested in A549 cells; further: nearly all actives have a fitted effect of over 35% in size; inactives centre near -10
Vaccinia Venus: inhibitors of vaccinia virus (Venus reporter). Vaccinia virus Venus reporter expression, fluorescence. Potency, µM (series often up to 36.5 µM), inactives show top-dose activity change, negative = inhibition, hits mostly inhibitors. 0.46% of 330,000 active; active means well fitted inhibition curve with a large enough effect; inconclusive means small, poorly fitted or top-dose-only effect; inactive means no such curve, though single readings can be large or run the other way; tested in A549 cells; further: nearly all actives have a fitted effect of over 30% in size; inactives centre near -10
Starred values were filed as active, the others as inactive; i = inactive; u = inconclusive; x = not tested or not shown; [ ] = dose if it differs, or a comment. On the % scale 0 is the no-effect control and ±100 the full control effect; potency means the concentration at half of the fitted maximal effect. Outcome played no part in choosing rows. Share with any hit: about 0.87%.

Start of the data: the first 2 records as a preview:
Molecule | VACV mCherry inh | Vaccinia Venus
CC(OC(=O)CNS(=O)(=O)c1ccc2ccccc2c1)C(=O)N(C)c1ccccc1 (centres undefined) | u | -24.3%
CCN(CC)c1nc(C=Cc2ccc(N(C)C)cc2)c2nccnc2n1 | 39.9%[activator] | i

The list itself, previewed entries included:
Molecule | VACV mCherry inh | Vaccinia Venus
CC(OC(=O)CNS(=O)(=O)c1ccc2ccccc2c1)C(=O)N(C)c1ccccc1 (centres undefined) | u | -24.3%
CCN(CC)c1nc(C=Cc2ccc(N(C)C)cc2)c2nccnc2n1 | 39.9%[activator] | i
CC(C)C(O)(CC#CCN1CCCC1)c1ccccc1 (centres undefined) | -15.4% | 0.0%
CN(C)C(CNC(=O)CSC(=S)N1CCCC1)c1ccccc1 (centres undefined) | i | -2.4%
Cc1ccc(CNC(=O)CCNC(=O)c2ccco2)cc1 | x | -10.5%
C#CCOCCOCCOCCNc1nc(N2CCN(C(=O)[C@H](CCCCN)n3cc(CN)nn3)CC2)nc(N2CCN(C(=O)[C@H](CCCCN)n3cc([C@@H](N)CC(N)=O)nn3)CC2)n1 | 4.9% | 3.9%
FC(F)(F)c1cccc(NC2=NCCS2)c1 | -21.9% | -18.4%
COc1ccc(S(=O)(=O)N2CCC(C(=O)NCc3ccccc3)CC2)cc1OC | -1.5% | -11.1%
CCOC(=O)[C@]12CCCC=C1N(Cc1ccccc1)C(=O)[C@H](CC(=O)NCCc1ccccc1OC)C2 | u | -16.2%
CCCCn1c(CN2CCN(c3ccc(OC)cc3)CC2)nc2c1c(=O)[nH]c(=O)n2C | -9.3% | -6.6%
COc1ccc(C(=O)CSc2n[nH]c(N)n2)cc1 | -4.1% | -5.4%
CCNS(=O)(=O)c1ccc(C(=O)OCc2cc(=O)oc3cc(OC)ccc23)cc1 | i | -3.4%
CC(C)N(Cc1nccn1C)C(=O)c1cc(COc2ccc(F)cc2Cl)on1 | -3.9% | -16.4%
CC(=O)Nc1ccc(NC(=O)C(C)OC(=O)CNS(=O)(=O)c2ccc(Br)cc2Cl)cc1 (centres undefined) | -18.2% | -20.5%
CCC(C)Nc1nc(-c2c[nH]c3ccccc23)cs1 (centres undefined) | 52.5%[activator] | 146.5%[activator]
CCOc1ccc(C(=O)/C=C/c2cc(OC)c(OC)c(OC)c2)cc1 | u | u
COc1ccccc1N1CCN(C(=O)CCc2ccccc2)CC1 | -13.0% | -11.1%
CCN(CC)CCNC(=O)C12CC3CC(CC(C3)C1)C2 | -19.0% | -6.2%
CC1(C(=O)NS(=O)(=O)c2ccccc2Cl)CCN1C(=O)Cc1ccccc1 (centres undefined) | i | -2.7%
Oc1ccc(C=NNc2ccccn2)c(O)c1 | u | u

Next entries.
Molecule | VACV mCherry inh | Vaccinia Venus
CC(=O)c1ccc(NC(=O)CN2CCC(NC(=O)c3ccccc3C)CC2)cc1 | -10.3% | -1.9%
COc1ccc(/C(O)=C2/C(=O)C(=O)N(CCN3CCOCC3)C2c2ccccn2)cc1OC (centres undefined) | -6.7% | -27.7%
COc1ccc([C@@H]2[C@H]3C(=O)N(c4cccc(C(F)(F)F)c4)C(=O)[C@H]3ON2C)cc1 | -11.8% | -9.4%
Cc1cc(OC(=O)C(C)(C)C)c([N+](=O)[O-])c(=O)[nH]1 | i | 3.1%
CCN(CC(=O)Nc1ccc2c(c1)OCO2)Cc1nc2ccccc2c(=O)[nH]1 | -11.5% | -13.9%
CCCCCNC(=O)C(c1cccc2ccccc12)n1c(=O)c(-c2ccco2)nc2ccccc21 (centres undefined) | i | -4.7%
COC(=O)c1cccc(NS(C)(=O)=O)c1 | i | -7.3%
Nc1cccc(-c2cccc3nncn23)c1 | -15.3% | 0.5%
COc1ccc(-n2c(SCc3ccccc3)nc3c([nH]c4ccccc43)c2=O)cc1 | u | -25.6%
CS(=O)(=O)Nc1ccccc1NS(C)(=O)=O | 4.7% | 22.1%
CCCCOc1ccc(C(=O)NC(=S)Nc2ccc(CN3CCOCC3)cc2)cc1 | -18.4% | 5.5%
Nc1nc(COC(=O)c2ccco2)nc(Nc2ccccc2)n1 | i | -3.6%
O=C1C=C(c2cccc(Br)c2)C[C@@H](c2ccc(F)cc2)C1 | i | -21.9%
COc1ccccc1N1CCN(Cc2cccs2)CC1 | i | -6.7%
O=C(CCNC(=O)C1CCN(S(=O)(=O)c2ccccc2)CC1)NCc1cccnc1 | -1.6% | -13.8%
Cc1cc(C)cc(N(CC(=O)Nc2ccc(-c3nc4ccc(C)cc4s3)cc2)S(C)(=O)=O)c1 | -26.8% | -22.8%
Cc1ccc(C)c(Nc2nn3c(=O)c4ccc(C(=O)NCCC5=CCCCC5)cc4nc3s2)c1 | u | u
CCc1c(C(=O)N2CCN(c3ccccc3F)CC2)[nH]c(C)c1C(C)=O | -4.6% | -19.7%
CCC(C)Sc1cc(C(F)(F)F)c(C(=O)Nc2ccc(Cl)cc2)cn1 (centres undefined) | -10.0% | u
CC12CCC(=O)N1C(C(=O)NNC(=O)c1ccc(Br)cc1)CS2 (centres undefined) | -12.0% | -9.2%

Following part:
Molecule | VACV mCherry inh | Vaccinia Venus
N/C(Cc1ccc(Cl)cc1)=N\OC(=O)Cc1ccc([N+](=O)[O-])cc1 | i | -8.1%
CCCN1CCC(=NNc2ccc(S(=O)(=O)N(CC)CC)cc2[N+](=O)[O-])CC1 | u | u
C=CCNC(=O)CC1Nc2c3ccccc3nc(=S)n2C1=O (centres undefined) | i | 0.3%
CCc1ccc(NCc2cccn2-c2nnc(N3CCCCCC3)s2)cc1 | -14.1% | -13.8%
Cc1ccc(N2C(=O)CC(NNc3nc4ccccc4s3)C2=O)cc1C (centres undefined) | -21.1% | -4.7%
CN(Cc1nc2ccccc2c(=O)[nH]1)C(=O)c1cc(-c2ccc(Br)cc2)nc2ccccc12 | -4.1% | -18.9%
COc1ccc(CN(C)C(=O)c2ccc(OCC(=O)Nc3cccc(C(F)(F)F)c3)c(OC)c2)cc1 | u | u
O=C(Nc1ccc(C(F)(F)F)cc1)c1cc(S(=O)(=O)NC2CCCCCC2)ccc1F | u | u
COc1ccc(-c2cc3c(c4c2ccn4C)C2CCC3C2)cc1F (centres undefined) | 10.1% | 0.1%
Cc1c(/C=N/NC(=O)c2ccc3c(c2)OCO3)cnn1C | -3.1% | -1.8%
CCn1c(SCC(=O)Nc2ccc(OC)c(S(=O)(=O)N3CCCCC3)c2)nnc1C1CC1 | -19.6% | -10.1%
CC(=O)c1csc(COc2cc(Cl)cc(Cl)c2)n1 | -13.6% | -11.9%
COc1ccc(-c2[nH]ncc2CN2CCCC(C(=O)c3cccc(OC)c3)C2)cc1 (centres undefined) | -3.1% | -5.8%
COc1ccc(CN2CCC(Oc3ccc(C(=O)N4CCCC4)cc3)CC2)c(F)c1 | -12.5% | -0.5%
CC(C)Oc1ccccc1/C=N/NC(=O)C1CCCC1 | -18.0% | -16.6%
CC(C)c1ccc(N2C(=O)C(Cl)=C(N3CCOCC3)C2=O)cc1 | -9.0% | -8.7%
COc1ccc(-c2noc(COc3ccc(Br)cc3C)n2)cc1OC | -14.3% | -8.8%
O=C(COC(=O)c1ccc(Cl)s1)c1ccc[nH]1 | -1.4% | -17.9%
COc1ccccc1NC(=O)c1ccc(NC(=O)COC(=O)C(C)C)cc1 | -12.1% | -10.4%
Fc1ccccc1CN1CCN(c2ncccn2)CC1 | -4.1% | u

Following part.
Molecule | VACV mCherry inh | Vaccinia Venus
Cn1c(CCN2CCCC2)nc2cc(NS(=O)(=O)c3ccc(F)cc3)ccc21 | -11.1% | -18.1%
COc1ccc(NC(=O)COc2ccccc2Cc2ccccc2)cn1 | -4.8% | -6.5%
COCC(=O)Nc1cccc2ccccc12 | 2.4% | -4.2%
CCCCCNC(=O)c1[nH]c(C(F)(F)F)nc1-c1ccccc1 | i | -6.9%
Cn1c(=S)c2[nH]c(SCCC(C)(C)C)nc2n(C)c1=O | -19.7% | -16.4%
Cc1ccccc1-n1c(SCC(=O)N2CCOCC2)nc(O)c(Cc2ccccc2)c1=O | i | -19.6%
O=C(O)c1cccc(C(=O)Cc2ccccc2)c1 | -15.2%[1.46 µM] | -9.5%
Cc1cccc(OCCC(=O)Nc2ccc(Cl)cc2F)c1 | -13.5% | -7.2%
COc1cccc(CSc2nc3n(n2)C(c2cccnc2)C(C(=O)Nc2ccccc2C)=C(C)N3)c1 (centres undefined) | -5.7% | 0.2%
COc1ccc(-c2c(-c3ccc(OC)c(F)c3)c3ccccc3n2C)cc1 | i | -11.9%
CC(C)(O)C#Cc1ccc(C(=O)NCc2ccccc2F)cc1 | -12.1% | 1.7%
COc1ccccc1CNC(=O)C1CC(c2c(Cl)cccc2Cl)=NO1 (centres undefined) | -5.8% | -17.9%
CC1(OC(=O)C2CCCC2)C(=O)C=C2C=C(c3ccsc3)OC=C2C1=O (centres undefined) | -10.0% | 15.9%
Cc1ccc(N2CC(C(=O)Nc3ccc(N4CCOCC4)cc3)CC2=O)cc1C (centres undefined) | u | -9.9%
O=C(NC(=S)Nc1ccc(C(=O)N2CCOCC2)cc1)c1ccc([N+](=O)[O-])cc1 | i | -9.3%
COc1ccc(/C=C2/CC/C(=C\c3ccc(OC)c(OC)c3OC)C2=O)c(OC)c1OC | i | -17.1%
C=C1C[C@H]2[C@@H]3C=C(C)C4=CC(=O)CC[C@]4(C)[C@H]3CC[C@]2(C)[C@@]1(OC(C)=O)C(C)=O | -14.6% | -10.4%
CCN(CC)CCNC(=O)CCc1n[nH]c(=O)c2ccccc12 | -3.3% | -4.9%
COc1cc2nc(N3CCOCC3)nc(NC3CCN(Cc4ccccc4)CC3)c2cc1OC | -1.1% | -19.6%
CN(C1CCCCC1)S(=O)(=O)c1ccc(C(=O)O)cc1 | -8.5% | 4.1%

Next section.
Molecule | VACV mCherry inh | Vaccinia Venus
CCSc1nnc(NC(=O)COc2ccccc2)s1 | -17.4% | -9.5%
CCc1ccccc1NC1=NCC(=O)N1Cc1ccc(OC)cc1 | -25.7% | -9.0%
CCOc1ccc(C2N(c3cc(Cl)ccc3OC)C(=O)C3CCCN32)cc1OC (centres undefined) | -9.1% | -8.6%
CC1(C)CSC(=S)N1S(=O)(=O)c1ccccc1 | i | -2.4%
O=C(c1cccnc1Nc1ccc2c(c1)CCC2)N1CCOCC1 | -7.8% | 5.5%
CC/C(O)=C1\C(=O)CC(c2ccccc2)CC1=NCCc1c(C)[nH]c2ccc(C)cc12 (centres undefined) | i | -3.6%
CCOC(=O)/C(C#N)=C/c1c(Oc2cc(C)cc(C)c2)nc2ccccn2c1=O | -5.1% | -4.7%
C=C(C)CCC(C)N1CCC(n2nccc2NC(=O)CCOc2ccccc2)CC1 (centres undefined) | -11.0% | -18.5%
CC(CC(=O)Nc1ccc2c(c1)c(=O)n(C)n2-c1ccccc1)c1ccccc1 (centres undefined) | 3.8% | -27.6%
COc1ccccc1/C=C/C=N/NC(=O)c1cc(-c2ccc(C)o2)[nH]n1 | u | -22.8%
COc1cccc(/C=C2\SC(N)=NC2=O)c1OS(=O)(=O)c1ccccc1 | i | -18.9%
CC(C)(C)c1ccc(C(CC(=O)O)NC(=O)c2ccccc2F)cc1 (centres undefined) | i | -13.5%
Cc1ccc2oc(=O)c3cnn(CC(=O)NC4CCC(C)CC4)c3c2c1 (centres undefined) | -3.5% | 0.0%
CCC(C(=O)Nc1nnc2n1CCS2)c1ccccc1 (centres undefined) | -1.2% | 4.1%
COc1ccc(C=NOCC(=O)OCC(=O)Nc2ccc(OC)cc2)cc1 | -9.0% | -2.2%
CCOc1ccc(NC(=O)Cn2nnc(C(=O)NCc3cccs3)c2N)cc1 | u | u
COC(=O)CN1C(C)=Nc2ccc(Br)cc2C1c1ccccc1 (centres undefined) | -15.4% | -3.4%
COCCNC(=S)NNC(=O)c1ccc(-n2cnnn2)cc1 | -8.1% | -3.7%
O=C1CCCC2=C1C1c3ccccc3C(=O)N1c1ccc(C(=O)c3ccccc3)cc1N2 (centres undefined) | -10.8%[1.46 µM] | -18.9%
COC(=O)[C@H](CC(C)C)NC(=O)NCc1ccc(Cl)cc1 | -24.2%[7.34 µM] | 2.3%[7.34 µM]

The listing continues.
Molecule | VACV mCherry inh | Vaccinia Venus
Nc1c(C(=O)O)cnc2nc(N3CCOCC3)nn12 | -8.7% | -13.2%
COCC(=O)Nc1nc2n(n1)C(c1ccc(Cl)cc1)CC(c1ccc(OC)cc1)N2 (centres undefined) | -26.3% | -13.0%
CC(C)c1cc(C(=O)OCC(=O)N2CCN(C(=O)c3ccco3)CC2)c(O)c(C(C)C)c1 | -0.1% | -3.8%
CC(=O)N1CCCc2cc(S(=O)(=O)Nc3ccc(OC(F)(F)F)cc3)ccc21 | -10.7% | -13.0%
COc1ccc(-c2nc3c(c(=O)c4ccccc4n3C)c(=O)n2Cc2ccccc2)cc1 | -9.3% | -7.6%
CC(C)COc1ccc(C(=O)N(CC(=O)Nc2ccccc2C(F)(F)F)Cc2ccco2)cc1 | -16.9% | -0.1%
CC(=O)N1CCN(C(=O)C2CCN(S(=O)(=O)c3ccccc3C(F)(F)F)CC2)CC1 | -18.7% | -1.1%
COC(=O)C1C2C=CC3(CN(C(C)c4ccc(OC)cc4)C(=O)C13)O2 (centres undefined) | -14.8% | -7.7%
CC1(C2CC2)NC(=O)N(CC(=O)N2CCN(c3ccccc3Cl)CC2)C1=O (centres undefined) | -0.2% | -10.6%
COc1ccc(N(CC(=O)N2CCc3ccccc3C2)S(=O)(=O)c2c(C)nn(C)c2C)cc1 | -1.7% | -14.8%
O=C(COc1ccccc1Cl)N(Cc1cccs1)C1CCS(=O)(=O)C1 (centres undefined) | -13.6% | -6.3%
